# HNF4A DNA FP: change in binding of human HNF4 alpha to DNA. 360,000 tested, 0.3% active. HNF4a-FITC DNA binding, fluorescence polarization, 1 h. activity change, % at 10 µM. P41235; in the data active = activity change above about 30%, passing the limit was not always enough;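 also: controls were the assay level and a saturating level of protein; the project sought stronger binding though the title names inhibitors; some compounds called inactive have numbers as strong as hits; positive values seem to mean higher polarization but the record does not say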
# Target sequence (P41235 whole entry, looked up): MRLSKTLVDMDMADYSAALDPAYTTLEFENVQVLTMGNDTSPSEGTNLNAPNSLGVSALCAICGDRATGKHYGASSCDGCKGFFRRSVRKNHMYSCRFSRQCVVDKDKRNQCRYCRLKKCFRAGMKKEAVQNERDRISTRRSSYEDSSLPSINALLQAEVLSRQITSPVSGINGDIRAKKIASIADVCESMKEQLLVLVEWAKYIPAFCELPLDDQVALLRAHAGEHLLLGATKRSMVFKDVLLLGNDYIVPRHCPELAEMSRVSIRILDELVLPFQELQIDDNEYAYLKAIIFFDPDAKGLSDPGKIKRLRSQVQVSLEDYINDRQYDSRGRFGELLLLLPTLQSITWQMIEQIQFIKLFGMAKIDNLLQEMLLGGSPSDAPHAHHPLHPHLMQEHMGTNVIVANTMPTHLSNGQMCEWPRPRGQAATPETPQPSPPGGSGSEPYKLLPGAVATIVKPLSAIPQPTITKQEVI
# LANA-H2A inh: blocks KSHV LANA binding to histone H2A/H2B | Q9QR71 | cell-free LANA-H2A/H2B peptide, fluorescence polarization | inhibition, % (concentration not given with the values) | 320,000 tested, 0.6% active; in the data active = inhibition mostly above about 10%, no sharp cut-off; inactive = mostly below about 6.7%;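 also: stock transfer was 7.5 nL into about 10 µL; 0% = median of vehicle wells and 100% = median of positive control wells; one replicate is shown; the record names a cut of 25% in any replicate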
# Vif A3G: HIV-1 Vif–A3G interaction blockers – biochemical, TR-FRET, GST-Vif 1-94, biotin-A3G peptide, dose response retest, primary screen (AID 1117319) | TR-FRET GST-Vif / biotin-A3G peptide binding; higher % means a stronger effect; test concentration not given here; strong numbers were not always called active | inhibition, %; hits with a dose series show IC50 in µM | 260,000 tested, 0.57% active;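 active = above the screen mean plus three standard deviations and confirmed in dose response; inconclusive = results disagree or hit not tested in dose response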;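 also: Vif residues 1-94 fused to GST binding biotinylated APOBEC3G peptide 110-148; 0% = full assay without inhibitor and 100% = GST in place of GST-Vif; retest series ran down from 100 µM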
# B2AR ag: human beta-2 adrenergic receptor agonism by FAP. P07550. response, % (no concentration beside the values). 340,000 tested, 0.43% active. Am2.2-beta2AR cells, FAP receptor internalization, flow cytometry; reference of the scale not given here;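 active = response above a set limit, near 3 SD of response in nonfluorescent compounds, cut at about 42% in these data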;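 also: stock transfer was 100 nL into about 11 µL; a reference agonist was the positive control; negative values mostly stem from fluorescent compounds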
# Target sequence (P07550 whole entry, looked up): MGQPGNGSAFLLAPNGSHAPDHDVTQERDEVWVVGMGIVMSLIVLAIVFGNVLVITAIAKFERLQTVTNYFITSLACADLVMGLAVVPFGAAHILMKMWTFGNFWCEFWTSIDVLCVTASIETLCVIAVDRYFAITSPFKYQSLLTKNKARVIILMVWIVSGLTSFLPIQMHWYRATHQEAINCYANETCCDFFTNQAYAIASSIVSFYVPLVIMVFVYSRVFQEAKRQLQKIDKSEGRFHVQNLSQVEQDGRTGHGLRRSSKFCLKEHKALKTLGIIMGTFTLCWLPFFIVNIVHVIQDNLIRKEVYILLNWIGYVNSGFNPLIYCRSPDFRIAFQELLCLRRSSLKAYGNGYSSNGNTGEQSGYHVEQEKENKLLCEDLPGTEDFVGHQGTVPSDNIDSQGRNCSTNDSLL
# Calb FLC: C. albicans growth modulation with fluconazole; 300,000 tested, 0.57% active; C. albicans CaCi-2 (fluconazole-resistant clinical isolate) + fluconazole, Alamar Blue growth, 48 h; growth inhibition, % (no concentration beside the values);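 active = most replicates above 75%; inconclusive = exactly half above 75%; inactive = most below 75%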;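 also: all wells also contain fluconazole at 8 µg/ml as a sub-toxic cotreatment; 0% = median of DMSO wells and 100% = median of geldanamycin control wells; wells of about 8 µL received 7.5 nL stock; the first replicate is given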
# RanGTP-Imp inh: inhibitors of RanGTP-importin-beta interaction, primary screen, biochemical, FRET, CFP-Ran, YFP-importin-beta, homogeneous. 300,000 tested, 1.1% active. inhibition, % (test concentration not listed). cell-free CFP-Ran/YFP-importin-beta FRET ratio;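 active = most replicates above 15%; inconclusive = exactly half above 15%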;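 also: 0% = DMSO wells and 100% = Ran loaded with GDP instead of GTP; wells of about 40 µL received 100 nL stock; the first replicate is given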
# ALR H2O2 inh: inhibitors of human sulfhydryl oxidase ALR | P55789 | purified ALR, DTT oxidation, H2O2 HRP-luminol luminescence | inhibition, % (concentration not given with the values) | 290,000 tested, 3.8% active;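 active = mean and each replicate at 75% or more; inconclusive = only one of the two met; inactive = neither met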;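 also: stock transfer was 7.5 nL into about 7.5 µL; 0% = neutral wells and 100% = wells with inactivated enzyme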
# Target sequence (P55789 whole entry, looked up): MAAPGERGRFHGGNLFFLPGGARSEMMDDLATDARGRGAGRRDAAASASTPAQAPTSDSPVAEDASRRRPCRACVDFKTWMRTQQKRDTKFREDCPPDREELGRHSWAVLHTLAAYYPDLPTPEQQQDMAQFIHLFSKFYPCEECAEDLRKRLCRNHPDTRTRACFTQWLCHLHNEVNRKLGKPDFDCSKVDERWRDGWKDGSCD
# * marks the source's active call; other numbers are inactive results; ? = inconclusive; . = not tested or not shown.
Structure	Calb FLC	LANA-H2A inh	ALR H2O2 inh	Vif A3G	HNF4A DNA FP	B2AR ag	RanGTP-Imp inh
CCOC(=O)c1[nH]c2cc3c(cc2c1CCCN1C(=O)c2ccccc2C1=O)OCCO3	-3	0.1	-25	-9%	-1.5	2	-1.9
O=C(CCC(=O)Nc1ccccc1)N/N=C/c1ccco1	14	-0.8	0	3%	-2.4	5	-2.4
NC(=O)c1ccc(SCC(=O)OCC(=O)NCc2ccco2)c([N+](=O)[O-])c1	.	-0.5	-17	-5%	0.0	0	7.8
O=C(N/N=C1\CC(c2ccccc2)Oc2ccccc21)c1cccnc1 (centres undefined)	1	0.1	.	-10%	-1.5	-6	0.5
COC(=O)C1=C(C)NC(c2c(O)ccc3ccccc23)C(C(=O)OC)=C1C (centres undefined)	26	-2.4	-14	-5%	-1.5	0	6.9
c1ccc2c(c1)CC1(CCCC1)n1nnnc1-2	16	1.4	.	3%	-2.5	-11	-1.8
O=C(NCc1ccc2c(c1)OCO2)c1ccc2c(c1)C(=O)N(Cc1cccnc1)C2=O	2	-0.5	-4	-1%	-1.2	-11	25
CCOC(=O)c1c(-c2ccco2)csc1NC(=O)COC(=O)c1cnc(C)cn1	9	1.9	.	.	-7.0	5	1.1
Cc1cccc(NC(=O)CN2CCN(CC(=O)Nc3ccc(-c4ccccc4)cc3)CC2)c1C	-31	3.2	7	.	-3.2	-5	6.5
Cc1cc(C2=CC(=O)C[C@H](c3ccc4c(c3)OCO4)C2)ccc1F	.	-1.9	-1	.	-1.9	-7	.
O=C(Nc1ccncc1)c1ccc(Cl)c([N+](=O)[O-])c1	-2	-2.0	-6	-2%	-3.7	10	7.2
CCCOc1ccc(C(=O)Nc2ccc3c(c2)OCO3)cc1	-12	-2.6	5	.	-3.5	8	1.7
C=CCc1cccc(/C=N/c2ncccc2O)c1O	0	2.7	.	?	-4.1	6	-1.7
CC(=O)c1cccc(NC(=O)C(=O)Nc2cccc3ccccc23)c1	0	-1.3	-16	0%	0.8	-3	6.1
CCCn1c(=O)c(C(=O)NCc2ccc3c(c2)OCO3)c(O)c2ccccc21	9	3.1	-5	-2%	1.2	5	-1.7
Cc1ccc(N2CC(C(=O)NCc3ccco3)CC2=O)cc1Cl (centres undefined)	38	-11	10	.	-1.1	1	-0.9
Cc1ccc(S(=O)(=O)NCCC(=O)NC2CCCCCC2)cc1C	.	0.7	.	.	0.1	-5	.
CN1CCCC(CC2Oc3ccccc3Sc3ccccc32)C1 (centres undefined)	-31	3.4	-1	.	0.4	.	-0.7
CN(C)S(=O)(=O)c1cccc(NC(=O)COC(=O)COc2ccccc2[N+](=O)[O-])c1	4	1.4	.	-8%	-1.9	3	1.8
CC(=O)NC(=O)c1cnn(-c2ccccc2)c1N	-4	0.4	2	6%	5.0	7	-0.9

# Copied from the list:
# For RanGTP-Imp inh, O=C(NCc1ccc2c(c1)OCO2)c1ccc2c(c1)C(=O)N(Cc1cccnc1)C2=O shows 25
# For ALR H2O2 inh, COC(=O)C1=C(C)NC(c2c(O)ccc3ccccc23)C(C(=O)OC)=C1C (centres undefined) shows -14

# Next part.
Structure	Calb FLC	LANA-H2A inh	ALR H2O2 inh	Vif A3G	HNF4A DNA FP	B2AR ag	RanGTP-Imp inh
O=S(=O)(NCc1cn2ccccc2n1)c1ccccc1F	9	2.8	-3	?	1.7	8	-0.1
O=C(Cc1ccccc1)Nc1nccs1	3	-3.9	4	10%	-2.8	0	-2.2
COc1cc2ccccc2cc1C(=O)N(CCN(C)C)c1nc2ccc(C)cc2s1	-3	2.7	-9	.	3.0	-1	2.8
COc1ccc(-c2nnc(SCC(=O)N3CCCCC3)o2)c(OC)c1	3	1.8	-3	13%	-0.1	-13	-2.9
Cc1cc(Oc2ccc(=O)n(C)n2)nc(SCC(N)=O)n1	0	-7.5	3	-13%	3.3	1	3.1
C=CCn1c(=O)[nH]c2cc(C(=O)N3CCN(c4ccc(C(C)=O)cc4)CC3)ccc2c1=O	14	-2.9	-1	2%	-12	0	7.2
CC(C)(C)OC(=O)N1CCN(c2ccc(NC(=O)c3ccco3)cc2)CC1	-16	.	.	.	0.0	-24	-2.1
Cc1ccc(/C=N/NC(=O)CC(=O)NCc2cccnc2)cc1	-5	-2.9	-2	.	-1.2	2	1.2
CC(C)Cc1ccc(C(C)C(N)=Nc2ccc(O)cc2)cc1 (centres undefined)	1	-3.2	18	.	-1.2	5	1.0
Cc1nn2c(N3CCOCC3)cc(C(C)C)nc2c1-c1ccccc1	4	-15	-3	-2%	-2.8	0	0.5
COc1ccc(C(=O)C[n+]2ccc3c(c2)nnn3-c2ccccc2)cc1	5	.	18	3%	3.1	-1	2.2
CCCc1nn(C)c(C(N)=O)c1[N+](=O)[O-]	0	-0.4	2	-10%	-0.7	3	1.1
COc1ccc(/C=N/NC(=O)c2cccnc2)cc1CSc1ccccn1	-5	2.0	99*	-7%	1.0	-9	-0.5
Cc1nc2c(-c3ccccc3)c(C)nn2c(C)c1CCC(=O)NCc1ccco1	.	-3.4	.	-3%	2.3	3	.
O=[N+]([O-])c1cncc([N+](=O)[O-])c1Nc1ccccc1Cl	-23	3.3	-48	.	-0.7	5	1.4
Cn1c(SCC(=O)NC2CCCC2)nc2cccnc21	-1	-5.1	-3	-11%	1.1	-15	6.8
O=C1NCCCC1C(=O)N/N=C/c1cccc(O)c1 (centres undefined)	3	3.6	17	30%	-0.8	-1	3.5
COC(=O)C1=C(C(=O)OC)[C@@H]2N(C)c3ccccc3[C@@]23C[C@@H](C(=O)OC)N(C(=O)c2cc(C)oc2C)C3=N1	10	4.7	-14	.	-1.8	-6	1.0
CC(C)(C)NC(=O)CSc1nc(N)cc(=O)[nH]1	-4	3.9	-5	15%	-3.0	7	5.6
O=C(O)CC(C(=O)OCC1CCCO1)N1CCOCC1 (centres undefined)	.	2.2	-3	-1%	-3.4	3	.

# 4 entries picked at random from the list so far:
Structure	Calb FLC	LANA-H2A inh	ALR H2O2 inh	Vif A3G	HNF4A DNA FP	B2AR ag	RanGTP-Imp inh
O=C(O)CC(C(=O)OCC1CCCO1)N1CCOCC1 (centres undefined)	.	2.2	-3	-1%	-3.4	3	.
COc1ccc(/C=N/NC(=O)c2cccnc2)cc1CSc1ccccn1	-5	2.0	99*	-7%	1.0	-9	-0.5
O=[N+]([O-])c1cncc([N+](=O)[O-])c1Nc1ccccc1Cl	-23	3.3	-48	.	-0.7	5	1.4
Cc1ccc(/C=N/NC(=O)CC(=O)NCc2cccnc2)cc1	-5	-2.9	-2	.	-1.2	2	1.2

# Going on with the list:
Structure	Calb FLC	LANA-H2A inh	ALR H2O2 inh	Vif A3G	HNF4A DNA FP	B2AR ag	RanGTP-Imp inh
Cc1ccc2c(c1)c1c(c(=O)n(-c3ccccc3C)c(=O)n1CC(=O)NCC1CCCO1)n2C (centres undefined)	?	-1.6	-10	.	-2.6	1	1.3
COc1cc([N+](=O)[O-])cc2sc(NC(C)=O)nc12	-5	-1.6	-75	-4%	-2.3	7	-1.2
O=C(c1ccc(Cl)c([N+](=O)[O-])c1)N1CCN(Cc2ccc3c(c2)OCO3)CC1	-53	3.6	-3	1%	-1.5	-2	2.2
Cc1nn(C)c(Cl)c1S(=O)(=O)N[C@@H](c1ccccc1)[C@]1(C)C[C@H]1[C@@H](C)C(=O)Nc1ccc2ccccc2c1	.	-0.1	-5	0%	0.8	6	.
N#CC1=C2N=C(N)c3c(sc4c3CCCCC4)N2C2=C(C(=O)CCC2)C1c1ccccc1 (centres undefined)	19	-3.6	-18	?	3.9	-4	-4.8
Cc1ccc2[nH]c3c(=O)n4c(nc3c2c1)SCC4	1	-3.8	0	-3%	5.1	-24	-0.6
O=C(NN1C(=O)/C(=C/c2ccc(O)cc2)SC1=S)c1cccc(O)c1	6	-31	99*	4%	107*	-108	-14
CC1CCCCC1NC(=O)CSc1nnc(CN2CCOCC2)n1C (centres undefined)	4	-0.9	-7	-5%	-0.7	9	2.8
CC(C)OP(=O)(OC(C)C)C(NC(=O)c1ccc(Br)cc1)c1ccccc1 (centres undefined)	-1	0.5	-24	1%	-2.7	0	6.1
COc1ccccc1NC(=O)CCC(=O)Nc1cc(OC)c(NC(=O)c2cccs2)cc1OC	19	-0.2	-10	.	2.4	-18	4.8
Cn1cccc1C1C(C#N)=C(N)OC2=C1C(=O)CCC2 (centres undefined)	1	-7.0	-17	?	-2.8	2	3.6
Cc1cccc2cc(CN(Cc3ccc(F)cc3)C(=O)N3CCOCC3)c(=O)[nH]c12	17	6.8	-10	.	2.3	-7	0.5
CC(C)CN(C(=O)c1ccc(S(=O)(=O)N2CCOCC2)cc1)C1CCS(=O)(=O)C1 (centres undefined)	-9	1.3	-8	-2%	-5.3	-6	?
CCc1cccc(CC)c1NC(=O)c1cccc(N)c1	0	0.8	-4	0%	-0.3	-1	0.2
Clc1ccccc1CSC1=NCCN1	16	-6.9	.	-1%	3.2	0	-1.3
COc1ccc([C@H]2CC(=O)C=C(c3c(C)cc(C)cc3C)C2)cc1	.	-5.0	9	.	-2.6	6	.
O=C(CSc1n[nH]c(-c2cccnc2)n1)Nc1ccccc1C(F)(F)F	8	-4.7	-4	.	0.9	-2	-1.6
Cc1c(/C=C/C(=O)c2ccc(O)cc2)cnn1C	-2	7.2	-7	.	5.5	-2	0.5
O=C(NCc1ccncc1)C(F)(F)C(F)(F)C(=O)NCc1ccncc1	-5	-1.2	-2	0%	-1.8	-4	-0.1
Cc1ccc(OCC(=O)NC(C)c2ccccc2)c([N+](=O)[O-])n1 (centres undefined)	-2	0.1	.	.	1.3	0	?

# Remaining list, next part.
Structure	Calb FLC	LANA-H2A inh	ALR H2O2 inh	Vif A3G	HNF4A DNA FP	B2AR ag	RanGTP-Imp inh
CCN(CC)S(=O)(=O)c1cc(NC(=O)C(=O)c2c(-c3ccccc3)cc3ccccn23)ccc1C	17	-2.6	-4	0%	0.7	10	-2.2
Cc1ccc(C(=O)N2C3C=CC(C3)C2(C(F)(F)F)C(F)(F)F)cc1 (centres undefined)	-8	0.4	-14	-2%	0.4	3	4.7
CCOc1ccc(/C=N/NC(=S)Nc2c(C)cccc2C)cc1	2	-0.5	1	3%	0.5	-3	-0.3
Cc1cc(S(=O)(=O)N2CCCC2)ccc1OCC(=O)N1CCC(C(N)=O)CC1	-2	-1.0	-2	-2%	-1.3	-1	5.2
CC(C)c1ccc(C(=O)NNC(=O)C2C3CCC(C3)C2C(=O)O)cc1 (centres undefined)	12	4.2	0	.	.	.	-1.1
O=C(NCc1ccccc1CN1CCCC1)c1cccc(N2CCCC2=O)c1	.	-1.5	-6	-3%	6.1	-8	.
CCCCCn1c(CCNC(=O)CCC)nc2ccccc21	-1	-2.5	-13	0%	3.1	-7	-3.2
CCn1c(COc2ccc(=O)n(-c3ccccc3)n2)n[nH]c1=S	-1	1.5	-3	-3%	2.6	-2	-0.9
Cc1ccc(OCC(=O)NCc2n[nH]c(=O)c3ccccc23)cc1	6	-0.2	-3	-4%	4.9	1	4.4
CC(=O)c1ccc(COC(=O)Cc2ccc([N+](=O)[O-])cc2)cc1	-3	-0.1	.	.	1.0	-2	-2.1
Fc1ccccc1CSc1nc2ccccc2[nH]1	?	1.1	-17	-2%	-2.0	-19	-3.9
CCCc1c(O)nc(SCCN(CC)CC)[nH]c1=O	-16	0.0	23	3%	1.9	-2	3.1
COc1cccc(N2CCN(CC(=O)NCc3ccccc3)CC2)c1	8	1.4	98*	-6%	-2.4	-4	-1.4
CC(C(=O)N1CCN(Cc2ccc3c(c2)OCO3)CC1)c1ccc([N+](=O)[O-])cc1 (centres undefined)	-11	0.0	-6	3%	-3.6	3	-3.6

# Compound activity (PubChem BioAssay)
